# Source: PubChem BioAssay (Broad Institute)
# FGF22 binding = binders of human FGF22 protein, primary screen, FGF22 synaptogenesis inhibitor project, biophysical, thermal shift, single point | recombinant FGF22 thermal shift, SYPRO orange fluorescence; percent of sucrose octasulfate shift, DMSO zero | calls only at 9.99 µM | 340,000 tested, 1.5% active;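 active means melting point raised past a set limit in the mean and every replicate; three in four hits are not shown here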
# Target sequence (Q9HCT0 whole entry, looked up): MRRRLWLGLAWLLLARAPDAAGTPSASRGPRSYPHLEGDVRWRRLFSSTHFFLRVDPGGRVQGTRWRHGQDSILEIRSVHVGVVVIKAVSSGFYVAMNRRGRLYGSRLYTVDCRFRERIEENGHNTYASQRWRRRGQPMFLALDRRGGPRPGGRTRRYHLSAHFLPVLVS
# Calls only; i = inactive; + = active, no number. Not all compounds are listed; the hit share may differ from the screen's.
FGF22 binding | SMILES
i | Cc1ccc(S(=O)(=O)N(C)C[C@@H]2Oc3ccc(NC(=O)CCCN(C)C)cc3C(=O)N([C@H](C)CO)C[C@@H]2C)cc1
i | CC(C)NC(=O)N(C)C[C@@H]1Oc2ccc(NC(=O)Cc3ccccc3)cc2CC(=O)N([C@H](C)CO)C[C@H]1C
i | C/C=C/c1ccc2c(c1)O[C@H](CN(C)C(=O)Cc1cccnc1)[C@@H](C)CN([C@@H](C)CO)S2(=O)=O
i | COc1ccc2c3c(n(C)c2c1)[C@@H](CO)N(C(=O)NC(C)C)CC31CCN(CC2CC2)CC1
i | O=C(c1ccc2c(c1)OCO2)N1C[C@H]2[C@@H](c3ccccc31)[C@H](CO)N2CC1CCCC1
i | C[C@H]1CN([C@@H](C)CO)S(=O)(=O)c2ccc(C3=CCCC3)cc2O[C@@H]1CN(C)Cc1ccccc1F
i | C[C@@H]1CN([C@@H](C)CO)C(=O)Cc2cc(NC(=O)CCCN(C)C)ccc2O[C@H]1CN(C)S(=O)(=O)c1ccc(Cl)cc1
i | Cc1noc(C)c1S(=O)(=O)Nc1ccc2c(c1)C(=O)N([C@@H](C)CO)C[C@@H](C)[C@@H](CN(C)C(=O)Cc1ccccc1)OCCCC[C@@H](C)O2
i | CO[C@@H]1CN(C)C(=O)c2cc(NS(=O)(=O)c3ccc(C)cc3)ccc2OC[C@H](C)N(C(=O)NC(C)C)C[C@@H]1C
i | C[C@H]1CN([C@@H](C)CO)C(=O)Cc2cc(NC(=O)CCC(F)(F)F)ccc2O[C@H]1CN(C)C
i | CCCNC(=O)N1[C@@H]2CN(C(=O)Nc3ccc(F)cc3)c3ccccc3[C@@H]2[C@@H]1CO
i | Cc1ccc(S(=O)(=O)N(C)C[C@H]2Oc3ccc(NC(=O)Nc4ccccc4)cc3C(=O)N([C@@H](C)CO)C[C@@H]2C)cc1
i | C[C@@H]1CN([C@@H](C)CO)C(=O)c2cc(NC(=O)CCC(F)(F)F)ccc2O[C@H]1CN(C)S(=O)(=O)c1cccs1
i | C[C@H]1CN([C@@H](C)CO)C(=O)c2cc(C3=CCCC3)cnc2O[C@H]1CN(C)Cc1ccccc1F
i | C[C@@H]1CN([C@H](C)CO)C(=O)c2cccc(NC(=O)CCCCCC(=O)Nc3ccccc3N)c2O[C@@H]1CN(C)S(C)(=O)=O
i | O=C(CN1CCOCC1)N1C[C@@H]2N[C@H](C1)C2c1ccc(-c2ccncc2)cc1 (stereo partly drawn)
i | C/C=C/c1ccc([C@H]2[C@@H](CO)N(CCC(F)(F)F)C23CN(C(C)=O)C3)cc1
i | C/C=C/c1ccc2c(c1)O[C@H](CN(C)S(C)(=O)=O)[C@@H](C)CN([C@@H](C)CO)S2(=O)=O
i | COc1ccc(NC(=O)Nc2ccc3c(c2)CC(=O)N([C@H](C)CO)C[C@H](C)[C@H](CN(C)C(=O)Nc2ccccc2)O3)cc1
i | COc1ccc(C#Cc2ccc3c(c2)O[C@H](CN(C)C(=O)c2ccccn2)[C@@H](C)CN([C@@H](C)CO)S3(=O)=O)cc1
i | COc1cc(CN2CC3(CCN(C(=O)Nc4c(C)noc4C)CC3)c3c([nH]c4cc(OC)ccc34)[C@H]2CO)cc(OC)c1
i | COc1cccc(C(=O)Nc2ccc(Oc3nnc(-c4ccccc4)c4ccccc34)cc2)c1
i | CCCNC(=O)C[C@@H]1CC[C@H]2[C@@H](COC[C@@H](O)CN2C(=O)Nc2ccccc2OC)O1
i | CCCC#Cc1ccc([C@@H]2[C@H]3CN(S(C)(=O)=O)CCCCN3[C@H]2CO)cc1
i | Cn1cnc(S(=O)(=O)N[C@@H]2C=C[C@H](CC(=O)NCC3CCCCC3)O[C@H]2CO)c1
i | CN(C)C(=O)[C@@]1(Cc2ccccc2)N=C(c2ccc(OCCCO)cc2)O[C@H]1c1ccccc1
i | O=C(NC1CCC1)[C@H]1[C@H](CO)[C@H]2Cn3c(ccc(-c4ccccc4)c3=O)[C@H]2N1CCc1ccccc1
i | C[C@H](CO)N1C[C@H](C)[C@H](CN(C)C(=O)CCC(F)(F)F)OCCCC[C@H](C)Oc2ccc(NC(=O)CCCN(C)C)cc2C1=O
i | O=C(c1ccccc1F)N1C[C@H]2[C@@H](c3ccccc31)[C@H](CO)N2Cc1ccc2c(c1)OCO2
i | C[C@@H]1CN([C@@H](C)CO)C(=O)c2cc(NS(=O)(=O)c3cn(C)cn3)ccc2O[C@H]1CN(C)Cc1ccc(C(F)(F)F)cc1
i | COCCNC(=O)C[C@H]1C[C@H]2c3cc(NS(C)(=O)=O)ccc3O[C@H]2[C@@H](CO)O1
i | COC(=O)[C@]12C[C@H](CC(=O)N3CCN(C(=O)c4ccco4)CC3)C(=O)N(Cc3ccc4c(c3)OCO4)C1=C[C@H](COCc1ccccc1)O[C@@H]2C
i | C[C@@H]1CN([C@H](C)CO)C(=O)CCCn2nncc2CO[C@@H]1CN(C)CC1CC1
i | CCCNC(=O)N(C)C[C@H]1Oc2ncc(Br)cc2C(=O)N([C@@H](C)CO)C[C@H]1C
i | COc1ccc(S(=O)(=O)Nc2ccc3c(c2)[C@H]2C[C@@H](CC(=O)N(C)C)O[C@@H](CO)[C@H]2O3)cc1
i | CC(=O)N1CC2(C1)[C@H](c1ccccc1)[C@@H](CO)N2Cc1cccc(Cl)c1
i | CCCCc1c(-c2ccccc2OC)ncn1Cc1cc(F)cc(F)c1
i | CC(C)C#Cc1ccc2c(c1)O[C@H](CN(C)C(=O)c1ccccc1)[C@H](C)CN([C@@H](C)CO)S2(=O)=O
i | CCCNC(=O)C[C@@H]1CC[C@@H]2[C@H](COC[C@@H](O)CN2C(=O)Nc2cccc(Cl)c2)O1
i | CCC(=O)Nc1ccc2c(c1)OC[C@@H](C)N(C(=O)CN1CCOCC1)C[C@@H](C)[C@@H](OC)CN(C)C2=O
i | CCCC#Cc1ccc2c(c1)[C@@H]1[C@@H](CCN1C(=O)CC1CC1)[C@@H](CO)N2C
i | CCCNC(=O)N1CC2(CCN(CC3CCCC3)CC2)c2c(n(C)c3cc(OC)ccc23)[C@H]1CO
+ | CC=Cc1ccc2n(c1=O)C[C@@H]1[C@@H](CO)[C@H](C(=O)N3CCc4ccccc4C3)[C@H]2N1Cc1ccncc1 (mixture of isomers)
i | Cc1ccc(S(=O)(=O)Nc2ccc3c(c2)CC(=O)N([C@H](C)CO)C[C@@H](C)[C@H](CN(C)S(=O)(=O)c2ccc(C)cc2)O3)cc1
i | C[C@@H]1CCCCO[C@@H](CN(C)S(=O)(=O)c2ccc(Cl)cc2)[C@H](C)CN([C@@H](C)CO)C(=O)c2cc(NC(=O)Nc3ccccc3)ccc2O1
i | C[C@@H]1CN([C@H](C)CO)S(=O)(=O)c2ccc(-c3ccc(C#N)cc3)cc2O[C@@H]1CN(C)C(=O)Nc1cc(F)ccc1F
i | CCCC(=O)Nc1ccc2c(c1)OC[C@H](C)N(Cc1ccccn1)C[C@@H](C)[C@H](OC)CN(C)C2=O
i | CN1c2ccc(-c3cccc(C#N)c3)cc2[C@@H]2[C@@H](CCN2S(=O)(=O)c2cccc(F)c2)[C@@H]1CO
i | C[C@H]1CCCCO[C@H](CN(C)C)[C@@H](C)CN([C@@H](C)CO)C(=O)c2cc(NC(=O)NC3CCCCC3)ccc2O1
i | COc1ccc(NC(=O)N(C)C[C@H]2Oc3ccc(NC(=O)Nc4cccc5ccccc45)cc3CC(=O)N([C@H](C)CO)C[C@@H]2C)cc1
i | C[C@@H]1CCCCO[C@H](CN(C)S(=O)(=O)c2ccc(F)cc2)[C@H](C)CN([C@@H](C)CO)C(=O)c2cc(NS(=O)(=O)c3ccccc3)ccc2O1
i | C[C@H](CO)N1C[C@H](C)[C@H](CN(C)C(=O)Nc2ccc(C(F)(F)F)cc2)Oc2ccc(NS(=O)(=O)c3cccs3)cc2CC1=O
i | CCNC(=O)C[C@H]1CC[C@H](NC(=O)NC2CCCCC2)[C@H](CO)O1
i | O=C(c1ccccc1)N1C[C@@H]2[C@H](c3ccccc31)[C@H](CO)N2Cc1ccccn1
i | COc1ccc2c3c([nH]c2c1)[C@H](CO)N(C(=O)CN1CCOCC1)CC31CCN(C(=O)NC(C)C)CC1
i | C[C@@H]1CCCCO[C@@H](CN(C)CC2CCCCC2)[C@@H](C)CN([C@@H](C)CO)C(=O)c2cc(NC(=O)C3CCCCC3)ccc2O1
i | CC(C)C#Cc1ccc([C@@H]2[C@@H](CO)N3CCCCN(S(=O)(=O)Cc4ccccc4)C[C@@H]23)cc1
i | CCCCN1CC(COCc2ccccc2)Oc2cccc(Oc3ccc(SC)c(C)c3)c2S1(=O)=O (stereo not drawn)
i | Cc1noc(C)c1NC(=O)Nc1ccc2c(c1)C(=O)N([C@@H](C)CO)C[C@@H](C)[C@@H](CN(C)C(=O)Nc1ccccc1)OCCCC[C@H](C)O2
i | CCCCOCCCNC(=O)C[C@H]1C[C@@]2(C(=O)OC)C(=C[C@H](COCc3ccccc3)O[C@@H]2C)N(CCC2=CCCCC2)C1=O

# Carrying on:
FGF22 binding | SMILES
i | Cc1noc(C)c1S(=O)(=O)N(C)C[C@@H]1Oc2ccc(NC(=O)Cc3ccccc3)cc2CC(=O)N([C@@H](C)CO)C[C@H]1C
i | NC(=O)c1ncn([C@@H]2O[C@H](C(=O)N[C@H](Cc3ccccc3)C(=O)N3CCN(CC(=O)Nc4ccccn4)CC3)[C@@H](O)[C@H]2O)n1
i | O=C(NCC1CCCCC1)[C@@H]1[C@@H](CO)[C@@H]2Cn3c(ccc(-c4ccccc4F)c3=O)[C@H]1N2
i | C[C@H]1CN([C@@H](C)CO)C(=O)Cc2cc(NC(=O)Nc3cccc4ccccc34)ccc2O[C@H]1CN(C)C(=O)Nc1ccc(F)cc1
i | COc1ccc(S(=O)(=O)Nc2ccc3c(c2)C(=O)N([C@H](C)CO)C[C@@H](C)[C@@H](CN(C)Cc2ccc4c(c2)OCO4)OCCCC[C@@H](C)O3)cc1
i | C[C@H](CO)N1C[C@H](C)[C@@H](CN(C)C(=O)c2ccccc2)Oc2cc(-c3cccc(C#N)c3)ccc2S1(=O)=O
i | C[C@@H]1CN([C@@H](C)CO)C(=O)c2cccc(NC(=O)Nc3ccccc3)c2O[C@@H]1CN(C)S(=O)(=O)c1cn(C)cn1
i | C[C@H]1CN([C@@H](C)CO)C(=O)Cc2cc(NC(=O)CCN3CCOCC3)ccc2O[C@H]1CN(C)C(=O)Nc1ccc2c(c1)OCO2
i | CCNC(=O)[C@@H]1[C@@H](CO)[C@@H]2Cn3c(ccc(-c4cccc(F)c4)c3=O)[C@H]1N2C(C)=O
i | COCC#Cc1cnc2c(c1)C(=O)N([C@@H](C)CO)C[C@@H](C)[C@H](CN(C)C(=O)C1CCCCC1)O2
i | C[C@@H]1CN([C@@H](C)CO)C(=O)c2cccc(NC(=O)C3CCOCC3)c2O[C@@H]1CN(C)Cc1ccc(C(=O)O)cc1
i | C[C@@H]1CN([C@H](C)CO)C(=O)c2ccccc2-c2ccccc2CO[C@@H]1CN(C)Cc1ccc(-c2ccccc2)cc1
i | O=C(NC1CCC1)[C@@H]1[C@@H](CO)[C@@H]2Cn3c(ccc(-c4cccc(F)c4)c3=O)[C@H]1N2Cc1cocn1
i | O=C(O)[C@@H]1[C@@H](CO)[C@@H]2Cn3c(ccc(C4=CCCCC4)c3=O)[C@@H]2N1Cc1ccc2c(c1)OCO2
i | C/C=C/c1ccc2c(c1)O[C@@H](CN(C)C(=O)NCCC)[C@H](C)CN([C@H](C)CO)S2(=O)=O

# A second format for 2 compounds above:
molecule | FGF22 binding
CCNC(=O)C[C@H]1CC[C@H](NC(=O)NC2CCCCC2)[C@H](CO)O1 | i
O=C(c1ccccc1)N1C[C@@H]2[C@H](c3ccccc31)[C@H](CO)N2Cc1ccccn1 | i

# (next part)
FGF22 binding | SMILES
i | O=S(=O)(N[C@@H]1CC[C@H](CCn2cc(C3(O)CCCC3)nn2)O[C@H]1CO)c1ccc(Cl)cc1
i | CC(C)NC(=O)N(C)C[C@H]1OCCCC[C@H](C)Oc2ccc(NC(=O)CCC(F)(F)F)cc2C(=O)N([C@H](C)CO)C[C@H]1C
i | CO[C@H]1CN(C)C(=O)c2cc(NC(=O)Nc3ccccc3F)ccc2OC[C@H](C)N(Cc2ccccc2C(=O)O)C[C@@H]1C
i | COc1cccc(NC(=O)Nc2ccc3c(c2)C(=O)N(C)[C@@H]2CC[C@@H](CC(=O)NCCc4ccccc4)O[C@@H]2CO3)c1
i | C[C@@H]1CN([C@H](C)CO)C(=O)CCCn2cc(nn2)CO[C@@H]1CN(C)Cc1cccc(C(=O)O)c1
i | O=S(=O)(c1cccc(F)c1)N1CC[C@@H]2[C@H]1c1cc(C#Cc3cccc(F)c3)ccc1N[C@@H]2CO

# A draw from above in order of heavy-atom count, high to low:
FGF22 binding | SMILES
i | C[C@H]1CN([C@@H](C)CO)C(=O)Cc2cc(NC(=O)CCN3CCOCC3)ccc2O[C@H]1CN(C)C(=O)Nc1ccc2c(c1)OCO2
i | CC(C)NC(=O)N(C)C[C@H]1OCCCC[C@H](C)Oc2ccc(NC(=O)CCC(F)(F)F)cc2C(=O)N([C@H](C)CO)C[C@H]1C
i | COc1cccc(NC(=O)Nc2ccc3c(c2)C(=O)N(C)[C@@H]2CC[C@@H](CC(=O)NCCc4ccccc4)O[C@@H]2CO3)c1
i | C[C@@H]1CN([C@H](C)CO)C(=O)c2ccccc2-c2ccccc2CO[C@@H]1CN(C)Cc1ccc(-c2ccccc2)cc1
i | C[C@@H]1CN([C@@H](C)CO)C(=O)c2cccc(NC(=O)C3CCOCC3)c2O[C@@H]1CN(C)Cc1ccc(C(=O)O)cc1
i | C[C@H](CO)N1C[C@H](C)[C@@H](CN(C)C(=O)c2ccccc2)Oc2cc(-c3cccc(C#N)c3)ccc2S1(=O)=O
i | O=C(NC1CCC1)[C@@H]1[C@@H](CO)[C@@H]2Cn3c(ccc(-c4cccc(F)c4)c3=O)[C@H]1N2Cc1cocn1
i | O=C(O)[C@@H]1[C@@H](CO)[C@@H]2Cn3c(ccc(C4=CCCCC4)c3=O)[C@@H]2N1Cc1ccc2c(c1)OCO2
i | O=S(=O)(N[C@@H]1CC[C@H](CCn2cc(C3(O)CCCC3)nn2)O[C@H]1CO)c1ccc(Cl)cc1
i | C/C=C/c1ccc2c(c1)O[C@@H](CN(C)C(=O)NCCC)[C@H](C)CN([C@H](C)CO)S2(=O)=O
i | CCNC(=O)[C@@H]1[C@@H](CO)[C@@H]2Cn3c(ccc(-c4cccc(F)c4)c3=O)[C@H]1N2C(C)=O
